LT uptake inh: blocks cellular internalization of anthrax lethal toxin; Cells, anthrax lethal toxin internalization, FRET ratio (460/530); Potency, µM (highest dose often 40 µM), for inactives: top-dose activity change, negative = inhibition, most hits filed as inhibitors; actives 0.67% (n = 70,000); AID 912; active = well fitted falling ratio curve with the 530 nm signal flat; inconclusive = other ratio curves, or a change in one channel alone; inactive = flat curves in the ratio and both channels; the % refers to the ratio; note: % is set by controls: 0 for no effect and ±100 for the full control effect; nearly all actives have a fitted effect of over 50% in size; tested in ME-180 cells; beta-lactamase reporter
SmPrx2 inh: Schistosoma mansoni Prx2 inhibition; Potency, µM; S. mansoni Prx2 activity coupled to TGR/GSH (TGR is thioredoxin glutathione reductase), NADPH fluorescence loss, qHTS; some inactives read as strong as hits; AID 448; actives 0.07% (n = 65,000); active means full or partial inhibition curve with a strong effect at the top dose; inconclusive means weaker partial or single-point curve; inactive means no accepted curve; note: series up to 57 µM; many of its hits are not listed in these tables
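Prx2 activity was followed as the loss of NADPH fluorescence (ex 365/em 450 nm), read every 30 sec for 8 min after H2O2 start. The enzyme mix (50 nM Prx2, 25 nM TGR, GSH, NADPH; pH 7.4 phosphate buffer) was incubated with compound for 15 min at room temperature first.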
The depositor's hits bear a star; ? = inconclusive; nt = no result given; & = joins results of further samples; [ ] = dose if it differs, or a comment. Potency is the fitted concentration of half-maximal effect. These rows are one share of the data. The share of hits here may be higher or lower than overall.

Every second line gives: SmPrx2 inh | LT uptake inh
CC(=O)[C@H]([C@@H](c1ccccc1)N1CCOCC1)N1CCOCC1
  >57 | -4.9%[8 µM]
Cc1ccc(-c2nc(CS(=O)CC(=O)NCCN(CC(C)C)CC(C)C)c(C)o2)cc1 (stereo not given)
  >57 | -9.9%
Cc1cccc(OCc2nnc(SCC(=O)Nc3sc(C)c(C)c3C#N)n2C)c1
  >57 | -10.1%
COc1ccc(CN(C(=O)c2oc3ccccc3c2C)C2CCS(=O)(=O)C2)cc1 (stereo not given)
  >57 | ?
COc1cc(S(=O)(=O)NC2CCCC2)ccc1Cl
  >57 | -0.7%
Cc1ccnc(NC(=O)CCc2c(C)nc3ncnn3c2C)c1
  >57 | -10.8%
COc1cc(C)c(N)cc1C(C)C
  >57 | -11.9%
Fc1ccc(Cn2nnnc2CN2CCc3ccccc3C2)cc1
  >57 | 4.0%
CC[C@H]1CN(C)[C@H]2Cc3c([nH]c4ccccc34)C(=O)C[C@H]1[C@H]2C(=O)OC
  >57 | -13.5%[8 µM]
CCN(CC)C(=O)c1ccc(O)c(OC)c1
  >57&>57 | -4.0%[3.58 µM]
CC(=O)N(c1ccc2oc(=O)sc2c1)S(=O)(=O)c1cccs1
  >57 | ?
CC(C)=CCC/C(C)=C/CO/N=C1/C[C@@H](O)[C@@H](O)[C@@H]2[C@@H]3C(=O)N(Cc4ccc5c(c4)OCO5)C(=O)[C@H]3CC[C@@H]12
  nt | -3.1%[8 µM]
CC1(C)OC(=O)C(=CNn2cnc3ccccc3c2=O)C(=O)O1
  >57 | 3.1%
CC(=O)Oc1ccc(CCC(C)OC(C)=O)cc1 (stereo not given)
  >57 | -13.0%
CC(=O)Oc1ccc2occ(C(=O)c3cccs3)c2c1
  >57 | -24.5%
O=C(CCN1CCN(C/C=C/c2ccccc2)CC1)Nc1ccccc1
  nt | -19.5%
c1ccc(C(CN2CCOCC2)c2ccccc2)cc1
  >57 | 3.2%
CCC(=O)Nc1cccc(NC(=O)CSc2nnc(C3CC3)n2C)c1
  >57 | 4.2%
Clc1ccc(Cn2ncc3c(NCc4cccnc4)ncnc32)cc1
  >57 | ?
NC(=O)C1CCN(C(=O)c2ccc(C(F)(F)F)cc2)CC1
  >57 | -7.8%
O=C(c1cccc(F)c1)N1CCC[C@@]2(CCN(c3ccccc3)C2)C1
  >57 | 5.6%
CN(CC(=O)NCCC1=CCCCC1)S(=O)(=O)c1ccc2c(c1)c(=O)n(C)c(=O)n2C
  >57 | -1.7%
COc1ccccc1-c1nnc(SCC(=O)O)n1C
  >57 | 3.5%
COc1ccccc1N1CCN(Cc2nc(N)nc(Nc3ccc(C)c(Cl)c3)n2)CC1
  >57 | ?
CCOc1ccccc1NC(=O)CSc1nnc(-c2ccccn2)n1Cc1ccco1
  >57 | -2.1%
CS(=O)(=O)N(Cc1ccccc1)c1ccc(C(=O)NC2CCCCC2O)cc1 (stereo not given)
  nt | 19.4%
Cc1ccccc1-n1c(C)nnc1SCC(=O)N1CC(=O)Nc2ccccc21
  >57 | 0.3%
COc1ccc(CNC(=O)c2cc3c(=O)n4ccccc4nc3n(Cc3ccco3)c2=N)cc1
  >57 | ?
c1nc(N2CCC3(CC2)OCCO3)c2c3c(sc2n1)CCCC3
  >57 | -12.6%
O=C(O)C1CCN(C(=O)c2scc3c2OCCO3)CC1
  >57 | 7.6%

A second format for some results above.
molecule: c1ccc(C(CN2CCOCC2)c2ccccc2)cc1
  SmPrx2 inh = >57; LT uptake inh = 3.2%

molecule: CCC(=O)Nc1cccc(NC(=O)CSc2nnc(C3CC3)n2C)c1
  SmPrx2 inh = >57; LT uptake inh = 4.2%

Carrying on:
Every second line gives: SmPrx2 inh | LT uptake inh
O=C(CCn1c(=O)c2sccc2n(CC(=O)OCc2ccccc2)c1=O)NCc1ccco1
  >57 | 5.9%
Cn1c(=O)c2c(nc(OCC3COC(C)(C)O3)n2Cc2ccccc2F)n(C)c1=O (stereo not given)
  >57 | -2.2%
O=C(N1CCOCC1)N1CCC(n2nnc3cc(F)ccc32)CC1
  >57 | -10.2%
C/C(NCC(C)(C)CN(C)C)=C(/C#N)C(=O)NCc1ccccc1
  >57 | -25.2%
Cc1ccc(Sc2oc(/C=N/n3cnnc3)cc2Br)cc1
  nt | ?
CC(C)c1ccccc1NC(=O)c1cccnc1
  >57 | 0.0%
O=C(c1cc2c(s1)CCCCCC2)N1CCC2(CC1)OCCO2
  >57 | 11.1%
CCC(Sc1nc(=O)cc(N)n1-c1cccc(C)c1)C(=O)Nc1cc(C)on1 (stereo not given)
  >57 | -4.2%
CN1CCN(C(=O)N2CCNC2=O)CC1
  >57 | 2.7%
COc1ccccc1CNc1ccnc(-c2ccc(N(C)C)cc2)n1
  >57 | ?
COC(=O)Cn1nc(-c2ccccc2)n(-c2ccccc2)c1=S
  >57 | -4.2%
COc1ccc(Oc2ncc3nc(C)c(=O)n(Cc4ccc(F)cc4)c3n2)cc1
  >57 | -2.5%
CCOc1ccc(N(C(C)C(=O)NC2CCCCCC2)S(C)(=O)=O)cc1 (stereo not given)
  >57 | -1.6%
CC1CCCN(C(=O)CSc2nnc3n(C4CCCC4)c(=O)c4ccccc4n23)C1 (stereo not given)
  >57 | -5.6%
Cn1c(=O)[nH]c(=O)c2[nH]c(NCCCN3CCOCC3)nc21
  >57 | 1.9%
COc1ccc(CCn2c(-c3ccco3)nc3ccccc3c2=O)cc1OC
  ? | -20.3%
COc1ccc(CC(=O)N2CCN(C(=O)c3ccco3)CC2)cc1
  >57 | ?
Cc1nnc(SCC(=O)Nc2ccc3c(c2)OCCO3)n1CC1CCCO1 (stereo not given)
  >57 | -7.9%
CC1CN(S(=O)(=O)c2cccs2)CC(C)O1 (stereo not given)
  >57 | -3.1%
CCc1nc2ccccc2c(C(=O)OCC(=O)Nc2ccc(S(=O)(=O)N3CCOCC3)cc2)c1C
  >57 | 12.6µM*
O=C1CC(=O)CC(c2ccco2)C1
  >57 | ?
COC(=O)[C@@]1(Cc2ccc(OC)cc2)[C@H]2c3cc(C(=O)N(C)C)[nH]c3C[C@H]2CN1C(=O)c1ccccc1
  >57 | 11.6%
COc1ccc(-c2nnc(SCC(=O)NC(C)c3ccccc3)o2)cc1 (stereo not given)
  >57 | -4.8%
CCOc1ccccc1Cn1c(=O)oc2ccc(C)cc21
  >57 | ?
CN1CCCC2(CCN(C(=O)c3cccc(F)c3)CC2)C1
  >57 | ?
CN(CC(=O)N1CCN(c2ccc(F)cc2)CC1)S(=O)(=O)c1ccc(F)cc1
  >57 | -6.9%
COc1ccc2nc(SCC(=O)Nc3ccc(S(=O)(=O)N4CCCC4)cc3)c(C#N)cc2c1
  >57 | 4.6%
COc1ccc(Cl)cc1NC(=O)CN1C(=O)CCS(=O)(=O)c2ccccc21
  >57 | 1.8%
O=C(c1csnn1)N1CCC2(CC1)CCN(C(c1ccccc1)c1ccccc1)CC2
  >57 | ?
CCCCCCCCCCCCCCCCCCOC[C@@H](COP(=O)([O-])OCC[N+](C)(C)C)OC
  >57 | -7.3%
COc1ccc(S(=O)(=O)N2CCN(C)CC2)cc1Br
  nt | 7.6%
CCCN(Cc1cc2ccc(C)cc2[nH]c1=O)C(=O)c1cccnc1
  >57 | nt
CC(NC(=O)COc1ccccc1)C(=O)OCC(=O)c1cc2ccccc2o1 (stereo not given)
  >57 | 4.8%
Cc1ccc(Cn2nnc3c(=O)n(Cc4cccc(C)c4)cnc32)cc1
  >57 | -7.0%
O=C(Nc1ccccc1)N1CCC(C(=O)N2CCN(S(=O)(=O)c3cccc(F)c3)CC2)CC1
  >57 | -4.4%
CC(=O)OCc1c(F)c(F)c(-n2nc(C)cc2C)c(F)c1F
  >57 | ?
O=C(CCc1ccccc1)NCc1ccccn1
  nt | -8.2%
O=C1c2ccccc2C(=O)N1CCCP(=O)(O)CCc1ccccc1
  >57 | -10.0%
CCOC(=O)c1cnc(-n2nc(C)cc2C)nc1Nc1cccc(C(=O)O)c1
  >57 | nt
COc1ccccc1-n1c(CNC(=O)c2ccco2)nnc1SCC(=O)Nc1cc(C)ccc1C
  >57 | -4.2%
C[C@@H](C(=O)Nc1ccc2ccccc2c1)[C@@H]1C[C@@]1(C)[C@@H](NC(=O)c1ccccc1)c1ccccc1
  >57 | ?
Cc1nc(Sc2nnnn2C)c2c3c(sc2n1)CCC3
  >57 | 2.6%
Cc1cc(=O)oc2cc(OC(C)C(=O)Nc3nccs3)ccc12 (stereo not given)
  >57 | nt
Cc1oc(-c2ccccc2Cl)cc1-c1nn2c(-c3ccco3)nnc2s1
  >57 | 5.7%
CCOc1ccc(NC(=O)N(C2CCCCCC2)C2CCN(C(C)=O)CC2)cc1
  >57 | -14.7%
CC(Sc1ccccc1)C(=O)Nc1cccc(N(C)S(C)(=O)=O)c1 (stereo not given)
  >57 | -11.2%
Cc1cc(C)nc(N2CCC(C(=O)N3CCN(c4cc(Cl)ccc4C)CC3)CC2)n1
  >57 | ?
Cn1cc(-c2nc3cncnc3n(C3CC3)c2=O)c2ccccc21
  >57 | -0.3%
COc1ccc(-c2nc(C#N)c(N3CCCCCC3)o2)cc1
  >57 | -6.7%
Cc1cccc(OCc2nnc(N)s2)c1
  >57 | -18.7%
Cc1cc(C)n(S(=O)(=O)c2ccc(C(C)(C)C)cc2)n1
  >57 | -17.4%
COc1ccccc1-c1ccc(NC2CCCCC2)nn1
  >57 | -3.2%
O=C(c1cccc(N2CCCC2=O)c1)N1CCN(c2ccccc2)CC1
  >57 | -5.7%
Cc1ccc(Cl)cc1N1CCN(S(=O)(=O)c2cnc[nH]2)CC1
  >57 | -23.0%
CCN(C(=O)c1cnc2scc(C)n2c1=O)c1ccccc1C
  >57 | -1.7%
CC(=O)Nc1ccc(S(=O)(=O)NCCNC(=O)c2ccccc2F)cc1
  >57 | nt
CCOC(=O)c1[nH]c2ccc(F)cc2c1NC(=O)CN1CCN(C/C=C/c2ccccc2)CC1
  >57 | ?
N#CCCCn1c(-c2ccccc2)noc1=O
  >57 | 2.2%
COC(=O)C1=CNC=C(C(=O)OC)C1c1cccc(OC)c1
  >57 | 16.8%
CCOc1ccc(S(=O)(=O)N2CCc3ccccc3C2)cc1
  >57 | -16.7%

Remaining list, next part
Every second line gives: SmPrx2 inh | LT uptake inh
CCOC(=O)c1oc2ccc(S(=O)(=O)Nc3ccc4c(c3)n(C)c(=O)n4C)cc2c1C
  >57 | ?
Cc1c(NC(=O)CCc2ccc(S(=O)(=O)N3CCOCC3)cc2)c(=O)n(-c2ccccc2)n1C
  >57 | 3.6%
O=c1[nH]cnc2scc(-c3cccs3)c12
  >57 | nt
O=C(Cc1ccccc1)NCc1nc2ccccc2[nH]1
  >57 | 3.5%
Cc1nc(NC2=NCN(C3CCCCC3C)CN2)nc2ccccc12 (stereo not given)
  >57 | -3.0%
CC(C)Cn1c(CN2CCN(c3ccccc3F)CC2)nc2c1c(=O)[nH]c(=O)n2C
  >57 | -2.9%
CN(C)C(=O)Cn1nc(-c2ccccc2)c2ccccc2c1=O
  >57 | 4.1%
COc1cc(NC(=O)Cc2ccccc2)cc(OC)c1
  nt | 4.3%
N#Cc1c(-c2ccc3c(c2)OCO3)csc1N
  >57 | ?
Cc1ccccc1Cn1ccc(NC(=O)c2cnn3cccnc23)n1
  >57 | 4.3%
O=S1(=O)C=CC(Sc2nc3ccccc3[nH]2)C1 (stereo not given)
  >57 | 2.4%
O=C(CCC1N=C2c3ccccc3N=C(SCc3cccc(Cl)c3)N2C1=O)NCc1ccco1 (stereo not given)
  >57 | ?
CC1Cc2ccccc2N1C(=O)c1cccnc1 (stereo not given)
  >57 | nt
O=C1C(c2ccc(F)cc2)N(Cc2ccc3c(c2)OCO3)C(=O)CN1C1CCCCC1 (stereo not given)
  >57 | ?
C=C(C)CSc1nnc(-c2ccccc2)n1N
  >57 | ?
Cc1nnc(SCc2ccc(CC(=O)O)cc2)o1
  >57 | -4.3%
COc1ccc(-c2cc(-c3ccccc3O)[nH]n2)cc1OC
  nt | 12.6µM*
CCN(CC)C(=O)NC1CC2CCCC(C1)N2Cc1ccccc1 (stereo not given)
  >57 | -16.1%
CCn1nc(C(=O)NC2=NCCS2)c2ccccc2c1=O
  >57 | -2.6%
O=C(C1CCCCN1S(=O)(=O)c1ccc(F)cc1)N1CCN(c2ccccc2F)CC1 (stereo not given)
  >57 | ?
O=C1N=C(c2ccccc2)C(c2ccccc2)N1 (stereo not given)
  nt | -5.6%
Cc1cc2nc(-c3ccc(NC(=O)c4cccnc4)cc3)oc2cc1C
  >57 | ?
C=CCOC(=O)COc1ccc2c(C)c(C)c(=O)oc2c1C
  nt | 6.1%
COc1ccc2[nH]c(=O)c(CN(CCCN(C)C)C(=O)Nc3ccc(F)cc3)cc2c1
  >57 | -2.4%
COc1ccc(NC(=O)CCSc2nnc(C)s2)cc1
  nt | 19.5%
CCOC(=O)C1=C(C)NC(=O)NC1c1ccco1 (stereo not given)
  >57 | ?
O=C(Nc1cccc(-c2cn3cccnc3n2)c1)c1ccc2c(c1)OCO2
  >57 | -5.1%
CC1(C)OCC([C@H](O)C2=CCCCC2=O)CO1
  nt | -9.5%[1.6 µM]
Cc1ccc2nc(NC(=O)CNS(=O)(=O)c3ccc(Br)s3)sc2c1
  >57 | ?
CCn1nc(CC(=O)Nc2ccc(-n3cnnn3)c(C)c2)c2ccccc2c1=O
  >57 | -5.0%
COc1ccc2cc3cc(C(=O)NCCN4CCN(c5ccccc5F)CC4)oc3nc2c1
  >57 | 8.9%
